OX1R antag-1: antagonists of human orexin 1 receptor; CHO/OX1R cells, Fluo-8 calcium fluorescence, orexin A; AID 434989; inhibition, % at 5 µM; hit rate 0.43% among 330,000; O43613;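 active = inhibition above its plate's threshold, mean inhibition of all tested compounds on the plate plus 3 SD, cut at about 37% in these data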;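 also: 0% = orexin A challenge wells and 100% = SB-334867-A antagonist wells; not every result past the cut was called active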
Target sequence (O43613 whole entry, looked up): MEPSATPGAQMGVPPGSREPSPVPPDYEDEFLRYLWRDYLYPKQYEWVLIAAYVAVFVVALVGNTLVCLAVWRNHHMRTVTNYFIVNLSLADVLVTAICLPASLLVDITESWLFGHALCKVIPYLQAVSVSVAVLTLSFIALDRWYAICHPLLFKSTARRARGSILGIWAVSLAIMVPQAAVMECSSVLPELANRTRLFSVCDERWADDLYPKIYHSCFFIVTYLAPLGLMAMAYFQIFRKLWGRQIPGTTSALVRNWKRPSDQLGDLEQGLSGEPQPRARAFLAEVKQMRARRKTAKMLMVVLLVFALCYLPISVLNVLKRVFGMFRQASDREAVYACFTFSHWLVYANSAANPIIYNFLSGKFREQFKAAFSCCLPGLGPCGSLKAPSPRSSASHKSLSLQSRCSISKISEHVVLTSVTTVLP
OX1R antag-2: blocks the human orexin 1 receptor; hit rate 1.8% among 330,000; inhibition, % at 6.6 µM; OX1R-expressing cells, FRET antagonist read-out; AID 485270; in the data active = inhibition mostly above about 38%, no sharp cut-off; inactive = mostly below about 40%;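 also: 0% = agonist challenge alone and 100% = reference antagonist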
An asterisk follows results filed as active. Not all compounds are listed; most or all hits stand in other tables.

SMILES	OX1R antag-1	OX1R antag-2
CCOC(=O)c1cnc(-n2nc(C)cc2C)nc1NCc1ccc2c(c1)OCO2	-11.3	11.3
NS(=O)(=O)c1ccc(N2N=C(c3ccc(Br)cc3)CC2c2ccc(F)cc2)cc1 (stereo not given)	-25.4	-13.1
Cc1ccc(C(=O)N/N=C/c2cc(C)n(-c3ccc(Br)cc3)c2C)cc1[N+](=O)[O-]	-28.5	41.8
Cc1ccc(OCCOc2cccc3ccc(C)nc23)c([N+](=O)[O-])c1	-28.2	8.7
NCCCCCc1cn([C@@H](CCC(=O)O)C(=O)NCCCCCCCCCCC(=O)N2CCNCC2)nn1	-8.6	33.6
CCCCC(CC)C(=O)Nc1cc(=O)[nH]c2nc3ccccc3n12 (stereo not given)	6.1	7.6
CC(=O)c1ccc(NC(=O)c2ccc(-n3cncn3)c([N+](=O)[O-])c2)cc1	-9.6	39.9
CSCCC(NC(=O)COc1cccc2ccccc12)C(=O)O (stereo not given)	-5.0	4.9
O=C1CSC(c2ccc(F)cc2)N1c1ccccc1F (stereo not given)	-10.5	7.6
COc1ccc2c(c1)-c1nc(NC(=O)c3ccco3)sc1CC2	-26.1	34.8
COc1ccc(CNC(=O)c2cc(C)nn2-c2ccccc2)cc1	-26.0	8.9
CCOC(=O)N1CCC(NC(=O)CN2C(=O)CCSc3ccccc32)CC1	-9.3	12.5
O=C(Cc1cccc2ccccc12)Nc1ccccc1	-5.8	5.6
Cc1nc(SCC(=O)Nc2ccccc2)c2oc3ccccc3c2n1	-5.9	15.9
Cc1nnsc1C(=O)NNc1c(Cl)cccc1Cl	17.0	6.7
NS(=O)(=O)c1ccc(NS(=O)(=O)c2ccc(NC(=O)C3CC3)cc2)cc1	5.1	5.9
Cc1ccc(N(C)S(=O)(=O)c2ccc(-c3ccc(=O)[nH]n3)s2)cc1C	16.2	6.3
CC(CN1CCNCC1)(NS(=O)(=O)c1ccccc1)c1ccccc1 (stereo not given)	-16.7	12.7
CCOc1c(Br)cc(/C=C2/SC(=O)N(CC(=O)N3CCCC3)C2=O)cc1OC	-21.1	22.3
COc1ccccc1-n1c(C)nc(=O)c(-c2ccccc2)c1C	-1.8	3.7
CCOC(=O)c1c(NC(C)=O)sc2c1CCC(C=NCCCN(CC)CC)=C2Sc1ccccc1	-12.2	13.4
OCc1ccc(OCCCOc2cccc3cccnc23)cc1	-4.9	0.3
CN(Cc1ccc(F)cc1)C(=O)COc1ccccc1-c1ccccc1	2.9	32.6
O=S(=O)(/C=C/c1ccccc1)N1CCN(Cc2ccc3c(c2)OCO3)CC1	-14.5	14.0
CCOc1ccccc1/C=C(/NC(=O)c1ccccc1)C(=O)N1CCCCC1	-4.1	17.1

Exported in CSV form: four of the compounds above.
SMILES,OX1R antag-1,OX1R antag-2
CC(=O)c1ccc(NC(=O)c2ccc(-n3cncn3)c([N+](=O)[O-])c2)cc1,-9.6,39.9
CSCCC(NC(=O)COc1cccc2ccccc12)C(=O)O (stereo not given),-5.0,4.9
O=C1CSC(c2ccc(F)cc2)N1c1ccccc1F (stereo not given),-10.5,7.6
COc1ccc2c(c1)-c1nc(NC(=O)c3ccco3)sc1CC2,-26.1,34.8

Additional records
SMILES	OX1R antag-1	OX1R antag-2
CCCN(Cc1nnc(-c2ccccc2Cl)o1)C(=O)c1oc2ccccc2c1C	-38.8	17.9
CCCCOc1ccc(NC(=O)CSc2nnnn2C)cc1	-2.4	5.4
O=C(NCc1ccccc1)c1ccc(Cl)cc1[N+](=O)[O-]	-14.1	21.5
CC(=C/c1ccco1)/C=N/NC(=O)c1nnn(-c2nonc2N)c1CN(C)C	-14.7	21.4
CNC(=S)N1CCN(c2ccccc2OC)CC1	-5.1	5.5
CC(=O)c1ccc(N2C(=O)[C@@H]3C(CCC(N)=O)NC4(C(=O)Nc5c4ccc(Cl)c5C)[C@@H]3C2=O)cc1 (stereo not given in full)	-10.5	32.0
CCOC(=O)c1sc(NC(=O)CNC(=O)Cn2cnc3sc(C)c(C)c3c2=O)nc1C	-8.8	4.0
CCSc1nnc(NC(=O)c2nc(S(=O)(=O)Cc3ccc(F)cc3)ncc2Cl)s1	-3.2	10.7
CNC(=S)Nc1ccc2nc(C)c(C)nc2c1	2.7	2.2
O=C(CSc1nnc(-c2ccncc2)s1)Nc1ccccc1	-1.5	22.9
O=C(NCc1ccccc1)NC12CC3CC(CC(C3)C1)C2	-19.7	20.1
CCCCOP(=O)(c1ccc(N(C)C)cc1)C(O)c1ccc(OC)cc1 (stereo not given)	-9.6	0.1
COc1ccc(N2CCN(C(=O)C3(C)CC3(Cl)Cl)CC2)cc1 (stereo not given)	1.3	2.3
O=S(=O)(NC1CCCC1)c1ccc(Br)s1	-6.4	9.8
COc1ccc(/C=C/C(=O)c2ccc[nH]2)cc1OC	-29.8	14.6
COc1cc(-c2ccccc2)nc(N)n1	-13.9	14.0
CCCCN(CCCNC(=O)C1CCN(S(=O)(=O)N2CCOCC2)CC1)c1ccccc1	0.0	21.1
FC(F)(F)c1cc(-c2ccco2)nc(NCc2cccs2)n1	-17.2	19.6
COCCCNC(=O)c1ccccc1Oc1ccccc1	-10.8	14.1
COc1ccc(-c2cn3ccc(C)cc3n2)cc1	-19.5	17.7
COc1ccc(OCC#CCNC(C)(C)C)cc1	-16.2	5.3
Cc1ccc(NC(=O)CN(C(=O)N2CCN(C)CC2)S(=O)(=O)c2ccc(C)cc2)cc1	3.2	-3.6
CC(C)C[C@H](N)c1cn([C@@H](CCCCN)C(=O)N2CCNCC2)nn1	-8.5	15.8
O=S1(=O)CCC(NC(=S)SCCOc2ccccc2)C1 (stereo not given)	-7.3	19.8
O=C(CCCCCNC(=S)Nc1ccccc1)C[N+](=O)[O-]	-2.0	1.2

(cont.)
SMILES	OX1R antag-1	OX1R antag-2
CC(C)CCNC(=O)C(c1ccncc1)N(CC1CCCO1)C(=O)Cn1nnc(-c2ccc(F)cc2)n1 (stereo not given)	-8.3	-6.8
CC1=C(C(=O)Nc2ccccc2)C(c2ccco2)C(C#N)=C(SCc2ccccc2)N1 (stereo not given)	21.8	42.9
O=C(CSc1nc(=O)n(CCN2CCOCC2)c2c1CCC2)Nc1ccc(OC(F)(F)F)cc1	-15.5	19.6
CCCCn1c(=S)[nH]c2cc(S(=O)(=O)N3CCCCC3)ccc21	-16.8	-6.9
CCN(CCCNC(=O)CC(C(=O)N1CCc2ccccc21)n1ccnc1)c1cccc(C)c1 (stereo not given)	-33.0	13.6
Cc1ccc(Cl)cc1NC(=O)CN1CCN(S(=O)(=O)N2CCOCC2)CC1	-19.5	12.9
CCOc1ccc(C2C(C(=O)c3cccs3)=C(O)C(=O)N2Cc2cccnc2)cc1 (stereo not given)	-3.1	22.6
NC(N)=N/N=C/c1ccc(OCc2ccccc2)c(OCc2ccccc2)c1	15.9	17.0
O=C(NC1CCCCC1)C12CC3CC(C1)CC(n1cncn1)(C3)C2	-19.9	9.9
COC(=O)c1ccc(Cn2cnc3ccccc3c2=O)cc1	-7.4	10.6
CC(C)(C)OC(=O)NCCCCCc1nnc(SCc2ccc(F)cc2)o1	-5.0	18.7
Cc1nc(-n2cc(F)c(=O)[nH]c2=O)c2nc(C)oc2n1	-2.8	9.8
O=C(C1CC1(c1ccccc1)c1ccccc1)N1CCOCC1 (stereo not given)	-15.5	14.8
CCc1c(C(=O)OC)nnc2cc(C)nn12	1.8	29.2
CCC(c1nnnn1CCc1ccccc1)N(Cc1ccco1)Cc1cc2cccc(C)c2[nH]c1=O (stereo not given)	-41.1	17.9
COc1ccc(-c2nc3ccc(N4CCCC4)cc3c(=O)[nH]2)cc1OC	-20.2	26.3
COCCNc1nc(-c2ccccc2)nc2c1oc1ccccc12	-31.9	19.4
COc1ccc(Cl)cc1NC(=O)CN(C(=O)c1ccco1)C1CCCCC1	-10.0	37.8
CN(C)/C=C/C(=O)c1cnc(-c2ccc(Cl)cc2)s1	-14.0	17.8
COCCNC(=O)NC(=O)COC(=O)Cc1ccc2c(c1)OCCO2	-14.6	4.2
COc1ccc(Oc2ccc(N/C=C3\CCCC3=O)cc2)cc1	-13.5	12.3
Nc1nc(SCc2ccc(Br)cc2)n[nH]1	-26.0	14.0
CCNc1nc(SCCOc2ccc(C)cc2)nc(N(C)C)n1	-38.9	13.0
Cc1cc(-n2cnc(-c3cn(C)nc3C)n2)no1	-8.1	-1.7
CS(=O)(=O)NCCOc1ccc(S(=O)(=O)NCCOc2ccccc2)cc1	-11.2	11.7

(next part)
SMILES	OX1R antag-1	OX1R antag-2
CCOc1ccc(/C=C/C(=O)C(C(N)=O)=C2SCCS2)cc1	-7.3	27.9
CCOC(=O)N1CCN(S(=O)(=O)c2ccc(C(=O)N(CCCN(C)C)c3nc4c(C)c(C)ccc4s3)cc2)CC1	-18.9	11.5
Cc1cccc2c1-c1sc(C(=O)N3CCc4ccccc4C3)cc1CO2	-38.5	29.2
Cc1ccc(-c2nnn(CC(=O)N(c3ccccc3)C(C(=O)NC3CCCC3)c3ccco3)n2)o1 (stereo not given)	-16.0	0.9
Cc1nc2ccccc2nc1CN1CCC(CO)(CC2CCCCO2)CC1 (stereo not given)	-19.3	15.8
Cc1cc(Cl)ccc1N=C1N=C(N)c2ccccc21	-5.4	6.7
CSc1ccc(Cn2nnc(C(=O)NCCc3ccc(Cl)cc3)c2N)cc1	-11.1	14.4
O=[N+]([O-])c1cc(Cl)ccc1-c1nc(-c2ccccc2)no1	-35.6	9.4
COCCNC(=O)CN(C(=O)CCC(=O)Nc1cc(C)on1)c1ccc(C)cc1C	-11.1	30.2
Cc1[nH]c2ccccc2c1C(=O)COC(=O)C(C)C	-20.1	3.8
O=C(O)CCc1ccc(-c2ccccc2)n1-c1cccc(O)c1	-3.2	4.9
CC(=O)c1ccc(N=Nc2ccc(N)cc2)cc1	-16.0	21.8
Cc1ccccc1/C=N/N=C1/NC(=O)CCS1	-9.9	8.5
Cc1cc(C)c(S(=O)(=O)Nc2cccnc2)c(C)c1	-5.4	15.0
CCc1cccc2c(C(=O)COC(=O)/C=C/c3ccc(O)c(OC)c3)c[nH]c12	16.2	15.3
CCOC(=O)c1cc(-c2ccccc2)sc1NC(=O)c1cc(OC)c(OC)c(OC)c1	-11.6	16.2
S=C(Nc1ccc(Cl)cc1)Nc1ccc2cn[nH]c2c1	-10.2	12.8
CCN(c1ccccc1)S(=O)(=O)c1ccc(Cl)c(NC(=O)COC(=O)c2ccc(Cl)c(N)c2)c1	-1.2	31.4
COc1ccccc1CNC(=O)CSc1n[nH]c(N)n1	-6.4	9.0
CC(C)C12CN3CC(C(C)C)(CN(C1)C3c1ccccc1O)C2=O (stereo not given)	-35.9	12.4
Cc1cc(=O)[nH]c(N/N=C/c2c(C)nn(-c3ccccc3)c2C)n1	5.1	44.3
CCCCOc1ccc(-n2nc(C)cc2C)nn1	-6.8	19.3
CC1(C)Cc2nc(NC3CCCCC3)c(C#N)cc2CO1	-26.0	3.6
Cc1ccn(CC(=O)N2CCCC(N3CCN(Cc4ccc5c(c4)OCO5)CC3)C2)n1 (stereo not given)	-22.3	-10.1
COc1ccc(CNC(=O)C(C)N(C)Cc2cccc(F)c2)cc1 (stereo not given)	-16.9	-2.6

Look-ups from the results shown:
For OX1R antag-2, `COc1ccc(CNC(=O)C(C)N(C)Cc2cccc(F)c2)cc1` (stereo not given) reads -2.6
For OX1R antag-1, `Cc1cc(C)c(S(=O)(=O)Nc2cccnc2)c(C)c1` reads -5.4
For OX1R antag-2, `Cc1cc(=O)[nH]c(N/N=C/c2c(C)nn(-c3ccccc3)c2C)n1` reads 44.3
For OX1R antag-1, `Cc1ccn(CC(=O)N2CCCC(N3CCN(Cc4ccc5c(c4)OCO5)CC3)C2)n1` (stereo not given) reads -22.3
For OX1R antag-1, `CCc1cccc2c(C(=O)COC(=O)/C=C/c3ccc(O)c(OC)c3)c[nH]c12` reads 16.2
For OX1R antag-2, `CC(=O)c1ccc(N=Nc2ccc(N)cc2)cc1` reads 21.8

Whole records, looked up by structure. Order of values: OX1R antag-1, OX1R antag-2
O=S(=O)(NC1CCCC1)c1ccc(Br)s1 is listed as -6.4, 9.8
Cc1cc(-n2cnc(-c3cn(C)nc3C)n2)no1 is listed as -8.1, -1.7

Following part
SMILES	OX1R antag-1	OX1R antag-2
CCOC(=O)[C@H]1O[C@@H]1C(=O)N[C@@H](CC(C)C)C(=O)NCCC(C)C	-2.5	5.7
CN1CCN(C(=S)NCCc2ccccc2)CC1	-3.4	-1.1
O=C(CCC(=O)N(CC(=O)NC1CCCCC1)c1ccccc1F)Nc1nccs1	-13.0	6.3
COc1cccc(CNC(=O)Cn2nc([N+](=O)[O-])c(Br)c2C)c1	1.6	18.0
Cc1cc(C)n(CCNC(=O)c2cc(COc3ccc(F)cc3Cl)on2)n1	-21.1	9.4
CCN(CC)CCCNC(=O)/C(=C\c1cccn1C)NC(=O)c1cccs1	-14.4	2.2
O=C1CC(N(CCc2ccccc2)C(=S)Nc2cc(Cl)ccc2Cl)C(=O)N1c1c(Cl)cccc1Cl (stereo not given)	9.2	9.4
O=C(NCCCn1ccnc1)c1ccc(NS(=O)(=O)c2ccc(Cl)c(Cl)c2)cc1	-14.5	-34.4
COc1ccc(C(=O)N2CCN(C(=O)c3ccco3)CC2)cc1OC	-6.4	8.7
Cc1onc(-c2c(F)cccc2Cl)c1C(=O)NCCN1CCNC1=O	-7.8	18.8
COc1ccc(OCC(=O)N2CCN(C(=O)c3cccc4ccccc34)CC2)cc1	-13.6	8.7
Cc1ccc(CN(CC(=O)NCC2CCCO2)S(=O)(=O)c2ccc(C)cc2)cc1 (stereo not given)	-16.4	12.7
CC(=O)Nc1ccc(C(=O)NCCCSc2ccccc2)cc1	-12.7	13.3
COc1ccc(NS(=O)(=O)c2cccc(C(=O)NNC(=O)CN3C(=O)NC(C)(C)C3=O)c2)cc1	-7.4	9.1
O=C(c1cccs1)N(Cc1cc2ccccc2[nH]c1=O)c1ccccc1	-16.9	22.9
COc1ccc(CCNC(=O)CSc2nc3c(c(=O)n(C)c(=O)n3C)n2C(C)C)cc1OC	-16.5	22.2
O=C(Cn1c(=O)oc2ccccc21)Nc1ccc(F)cc1	13.0	12.0
COc1ccccc1S(=O)Cc1ccc(C(=O)NCc2ccccc2Cl)o1 (stereo not given)	-28.6	8.7
CC(C)CNC(=O)c1cc(S(=O)(=O)N2CCOCC2)ccc1N1CCCC1	-23.6	25.9
